# From PubChem
# SARS PLP yeast: blocks SARS-CoV papain-like protease in a yeast assay; S. cerevisiae expressing SARS-CoV PLpro, growth rescue; control for the full effect not named in the record; 0.19% of 330,000 active; Potency, µM (highest dose often 32.9 µM), without a hit: top-dose activity, positive = growth rescue; active means well fitted rising curve with a large enough effect; inconclusive means small, poorly fitted or top-dose-only effect; inactive means no such curve, though single readings can be large or run the other way; also: 0% is about no effect; nearly all actives have a fitted effect of over 55% in size; growth read by luminescence after 48 h
# LASV entry inh: Lassa virus entry inhibition | Lassa virus pseudotype entry inhibition, cell reporter; control for the full effect not named in the record | Potency, µM (top dose mostly 37.9 µM), without a hit: at the top dose activity change, negative = inhibition, most hits filed as inhibitors | AID 540256 | 1.2% of 300,000 active; active means well fitted inhibition curve with a large enough effect; inconclusive means small, poorly fitted or top-dose-only effect, or effect the other way; inactive means flat fitted curve, though single readings scatter; tested in HEK293 cells; also: % is scaled to controls: 0 for no effect and ±100 for the full control effect; nearly all actives have a fitted effect of over 50% in size; luciferase read-out
# Cruzain Triton: inhibitors of Trypanosoma cruzi cruzain with detergent | P25779 | purified cruzain, Z-FR-AMC fluorescence, 0.01% Triton | Potency, µM, without a hit: max response, negative = inhibition, actives largely listed as inhibitors | 0.43% of 200,000 active;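 also: plate controls were neutral wells for no effect and buffer without enzyme for full effect; nearly all actives have a fitted effect of over 40% in size; top concentration of the series not given in the record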
# Target sequence (P25779 123-467 limits assumed): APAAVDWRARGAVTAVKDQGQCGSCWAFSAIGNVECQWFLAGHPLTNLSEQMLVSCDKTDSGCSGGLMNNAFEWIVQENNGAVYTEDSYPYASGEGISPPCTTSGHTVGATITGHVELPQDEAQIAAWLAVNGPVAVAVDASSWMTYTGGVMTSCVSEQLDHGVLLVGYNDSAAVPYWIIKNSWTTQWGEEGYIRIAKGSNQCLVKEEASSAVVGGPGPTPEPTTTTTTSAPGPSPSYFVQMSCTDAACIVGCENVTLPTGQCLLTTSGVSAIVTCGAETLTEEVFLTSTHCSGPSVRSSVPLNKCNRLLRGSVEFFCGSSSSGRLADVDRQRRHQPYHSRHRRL
#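 In this qHTS format, compounds are incubated with 1.5 nM cruzain for 15 min at room temperature before 2 uM Z-FR-AMC is added. Release of AMC is followed at 360/450 nm, and progress is taken as the 60 s fluorescence difference.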
# NS1 function inh: blocks influenza NS1 protein function | Potency, µM (highest dose often 46.1 µM), inactives show at the top dose activity, positive = more growth | S. cerevisiae slowed by influenza A NS1, growth recovery by OD600 | AID 2326 | 0.4% of 270,000 active; active means well fitted rising curve with a large enough effect; inconclusive means small, poorly fitted or top-dose-only effect; inactive means no such curve, though single readings can be large or run the other way; also: nearly all actives have a fitted effect of over 50% in size
#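 S. cerevisiae expressing influenza A NS1, grown in glucose, washed, then diluted 1:100 into pH 6.0 -URA galactose medium with 23 nl compound. Growth recovery read as OD600; NS1-free strain serves as control.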
# Marburg entry inh: blocks Marburg virus binding to or entry into cells; Marburg virus pseudotyped entry inhibition, cell reporter; control for the full effect not named in the record; about a third of the inactives were read at about 46 µM; Potency, µM (top dose mostly 37.8 µM), for inactives: at the top dose activity change, negative = inhibition, most hits filed as inhibitors; 1.8% of 300,000 active; AID 540276; active = well fitted inhibition curve with a large enough effect; inconclusive = small, poorly fitted or top-dose-only effect, or effect the other way; inactive = flat fitted curve, though single readings scatter; tested in HEK293 cells; about a fifth of its hits are not listed in these tables; also: % is scaled to controls: 0 for no effect and ±100 for the full control effect; luciferase read-out
# Cruzain noTriton: blocks cruzain activity in detergent-free assay; Potency, µM, inactives show max response, negative = inhibition, usual class: inhibitors; P25779; AID 1476; 2.3% of 200,000 active; purified cruzain, Z-FR-AMC fluorescence, no detergent;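 also: plate controls were enzyme without inhibitor for no effect and buffer without enzyme for full effect; nearly all actives have a fitted effect of over 40% in size; top concentration of the series not given in the record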
#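 Purified cruzain at 1.5 nM, pre-incubated 15 min with compound at room temperature in 100 mM sodium acetate pH 5.5, 5 mM DTT, 0.00005% Triton X-100. Reaction started with 2 uM Z-FR-AMC; AMC fluorescence increase over 60 s gives rate.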
# RE007 growth inh: less growth of the S. pombe RE007 Vpr strain. AID 651644. 0.21% of 360,000 active. Potency, µM (doses to about 92.2 µM), without a hit: top-dose activity change, negative = less growth. S. pombe RE007 Vpr strain, BacTiter-Glo ATP luminescence, 24 h; control for the full effect not named in the record; active = well fitted falling curve with a large enough effect; inconclusive = small, poorly fitted or top-dose-only effect; inactive = no such curve, though single readings can be large or run the other way;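 also: % is scaled to controls: 0 for no effect and ±100 for the full control effect; nearly all actives have a fitted effect of over 50% in size; the assay follows cell death caused by Vpr and the record does not say whether a fall means rescue or toxicity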
#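 Fission yeast strain RE007, carrying one chromosomally integrated HIV-1 vpr copy, was seeded at OD 0.01 in PMG+AL medium with 23 nL pinned compound. After 24 h at 30 °C and 99% humidity, viability was read by BacTiter-Glo luminescence.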
# StopGo reporter: lowers the luciferase signal of an FMDV 2A StopGo reporter; human cells with a luciferase reporter of 2A StopGo recoding; control for the full effect not named in the record; 1.2% of 410,000 active; Potency, µM (doses to about 57.9 µM), for inactives: at the highest dose signal change, negative = less light; active = well fitted falling curve with a large enough effect; inconclusive = small, poorly fitted or top-dose-only effect; inactive = no such curve, though single readings can be large or run the other way; tested in HEK293T cells; also: % is scaled to controls: 0 for no effect and ±100 for the full control effect; nearly all actives have a fitted effect of over 45% in size; luciferase light after 4 h
# * marks the source's active call; other numbers are inactive results; ? = inconclusive; nt = not tested or not shown; & = joins results of further samples; [ ] = dose if it differs, or a comment. Unless noted, calls follow the shape of the dose curve; as a rule, active = well fitted curve in the direction sought with a large enough effect; inconclusive = small, poorly fitted or top-dose-only effect, or another doubt; inactive = no such curve, though single readings can be large; an effect the other way counts as inactive or inconclusive. Potency is read from the fitted curve at half-maximal effect. This is a random part of the collection; 4.6% or so of the library scored in one or more.
# Values run as follows: SARS PLP yeast	LASV entry inh	Cruzain Triton	NS1 function inh	Marburg entry inh	Cruzain noTriton	RE007 growth inh	StopGo reporter
> Cc1ccc(S(=O)(=O)N(C)Cc2ccc(C(=O)N/N=C3\CC(=O)CC(C)(C)C3)cc2)cc1
    12.8%	13.3%	-3.3%	10.8%	-27.8%	-1.6%	-16.2%	-15.7%
> Cc1ccc(S(=O)(=O)N(C)c2ccc(C(=O)Nc3cccnc3)cc2)cc1
    -0.1%	2.5%	nt	-24.9%	?	nt	8.1%	?
> NS(=O)(=O)c1ccc(NC(=O)CN2CCN(S(=O)(=O)/C=C/c3ccccc3)CC2)cc1
    5.1%	-0.9%	nt	4.0%	-18.4%[46.1 µM]	nt	1.8%	-2.1%
> COc1ccc(CCNC2CC(C)N(C)CC2C)cc1OC (stereo not given)
    -2.4%	?	-3.3%	-3.5%	?	4.1%	-16.0%	-8.6%
> CCc1nc(N)c(C#N)c(-c2ccc(O)c(OC)c2)c1C
    ?	-8.5%	-4.2%	-10.8%	?	2.5%	13.3%	0.0%
> CCCN(CC(=O)Nc1ccccc1C)C(=O)CC(NC(=O)c1ccccc1)c1ccccc1 (stereo not given)
    6.3%	-9.4%	nt	nt	11.5%	nt	-7.9%	3.0%
> C=CCn1c(SC(C)C(=O)NC2(C#N)CCCCC2)nnc1-c1ccc(OC)cc1 (stereo not given)
    0.6%	2.5%	4.8%	-12.6%	-0.5%&2.3%	25.5%	0.7%[3.69 µM]	17.0%
> Cc1nc2c(c(=O)n1CCC1=CCCCC1)c1nc3ccccc3nc1n2/N=C/c1ccco1
    -14.0%	-23.5%	-9.1%	10µM*	?	?	-10.2%	-16.7%
> Cc1ccc(C(=O)/C=C/c2ccc(-c3ccccc3[N+](=O)[O-])o2)cc1
    -14.2%	-14.6%	-8.2%	8.9%	3.7%	?	-9.4%	nt
> COCCNC(=O)c1ccc2c(=O)n(Cc3ccco3)c(SCC(=O)NC3CCCCC3)nc2c1
    3.9%	3.6%	0.3%	1.1%	21.4%	?	20.8%[3.69 µM]	-3.2%
> Cc1ccc(NC(=O)C2CCN(S(=O)(=O)c3ccc4c(c3)CCCN4C(=O)C3CCC3)CC2)cc1
    nt	-17.2%[46.1 µM]	-3.0%	nt	nt	19.1%	nt	-27.1%
> C/C(=N\NC(=O)c1c(C)nc2ccccn12)c1ccccc1F
    7.2%	6.3%[46.1 µM]	nt	2.6%	11.3%[46.1 µM]	nt	-8.5%	5.6%
> CCOC(=O)Cn1ncn(-c2ccc(OC(F)(F)F)cc2)c1=O
    0.2%	0.4%[46.1 µM]	nt	4.3%	?	nt	0.6%	0.2%
> CC(=O)NCCc1ccc(O)c(O)c1
    nt	nt	-1.3%	-3.1%	33.6%&33.6%&33.6%&33.6%	4.2%	nt	nt
> CCOc1ccc(NCc2nnc(SCc3ccccc3Cl)n2-c2ccccc2)cc1
    -16.1%	?	-0.1%	-18.0%	?	13.7%	-4.0%	-10.0%
> COc1ccc(/C=C/C=C2C(=O)NC(=S)NC2=O)cc1
    nt	?	nt	nt	?	nt	70.8%	39.8µM*
> CCCCn1c(N)c(N(CC(C)C)C(=O)c2oc3ccc(OC)cc3c2C)c(=O)[nH]c1=O
    1.5%	-9.2%	nt	nt	?	nt	-3.4%	6.3%
> Oc1ccc(Cl)cc1CNc1ccc(Br)cn1
    -23.3%	?	-10.3%	-38.9%	-2.6%	-24.8%	-14.4%	-93.3%
> COc1cc(OC)cc(-c2cc(N)n(S(=O)(=O)c3cccc4nsnc34)n2)c1
    0.2%	nt	nt	?	nt	nt	-1.4%	-15.9%
> O=C(COc1ccc(Cl)cc1)Nc1ccccc1C(=O)NCc1cccnc1
    -15.0%	-12.3%	nt	1.6%	?	nt	9.8%	-24.3%
> O=C(CSc1nnc(NC(=O)c2ccco2)s1)NCc1ccc2c(c1)OCO2
    -1.0%	-2.8%	nt	-2.1%	?	nt	-8.7%	19.5%
> O=C(Cn1nnc2ccccc2c1=O)NCC1CCC(C(=O)O)CC1 (stereo not given)
    1.0%	nt	nt	0.8%	0.7%	nt	5.2%	-5.9%
> N#Cc1ccccc1NC(=O)CSc1n[nH]c(-c2ccco2)n1
    -0.4%	22.4%[46.1 µM]	nt	2.4%	2.6%[46.1 µM]	nt	6.3%	-0.4%
> NS(=O)(=O)c1ccc(CCNC(=O)CC(c2ccccc2)c2ccccc2)cc1
    3.5%	-7.9%	nt	3.2%	-15.6%	nt	-6.5%	-24.4%
> COC(=O)CCC(=O)NNC(=O)CCCOc1ccc(Cl)cc1Cl
    0.6%	-13.5%	-5.7%	1.2%	-10.5%	11.6%	-9.6%	-3.1%
> Cc1ccc(-c2csc3ncnc(N4CCc5ccccc5C4)c23)cc1
    18.6%	-28.8%	-4.1%	0.1%	-29.6%	?	-15.4%	?
> CC1=C(C(=O)OCC2CCCO2)C(c2cccc(C(F)(F)F)c2)C2=C(CC(c3ccco3)CC2=O)N1 (stereo not given)
    -21.7%	?	-4.5%	18.3%	?	17.8%	0.5%[3.69 µM]	-18.9%
> COc1ccccc1NS(=O)(=O)c1cccc(C(=O)NN=C2CCCCCC2)c1
    2.4%	4.7%	1.2%	5.4%	20.7%	-5.6%	0.4%	4.2%
> COc1ccc(CCn2c(-c3ccc(Cl)cc3)n[nH]c2=S)cc1OC
    0.9%	-0.1%[46.1 µM]	nt	nt	-0.6%[46.1 µM]	nt	43.0%	-3.8%
> O=C(CCNc1ccc(F)cc1)c1cc2ccccc2o1
    -7.1%	nt	nt	nt	-21.0%[46.1 µM]	nt	?	8.1%

# Entries of single compounds as entered above:
# CCCN(CC(=O)Nc1ccccc1C)C(=O)CC(NC(=O)c1ccccc1)c1ccccc1 (stereo not given) is listed with SARS PLP yeast: 6.3%; LASV entry inh: -9.4%; Cruzain Triton: nt; NS1 function inh: nt; Marburg entry inh: 11.5%; Cruzain noTriton: nt; RE007 growth inh: -7.9%; StopGo reporter: 3.0%
# COCCNC(=O)c1ccc2c(=O)n(Cc3ccco3)c(SCC(=O)NC3CCCCC3)nc2c1 is listed with SARS PLP yeast: 3.9%; LASV entry inh: 3.6%; Cruzain Triton: 0.3%; NS1 function inh: 1.1%; Marburg entry inh: 21.4%; Cruzain noTriton: ?; RE007 growth inh: 20.8%[3.69 µM]; StopGo reporter: -3.2%

# New compounds follow:
# Values run as follows: SARS PLP yeast	LASV entry inh	Cruzain Triton	NS1 function inh	Marburg entry inh	Cruzain noTriton	RE007 growth inh	StopGo reporter
> O=C(O)c1cccc(S(=O)(=O)Nc2ccc3oc(=O)sc3c2)c1
    14.1%	10.4%	3.6%	3.6%	29.9%	-8.5%	25.8%	22.7%
> COc1ccc2c(=O)c3c(=O)n(Cc4ccco4)c(-c4cc(OC)c(OC)c(OC)c4)nc3oc2c1
    -31.6%	2.9%	-8.3%	1.7%	12.7%	?	-2.0%	4.0%
> CC(C)CNC(=O)COC(=O)c1ccc(F)cc1Cl
    -1.7%	9.9%	nt	nt	9.9%[14.2 µM]	nt	5.2%	42.3%[activator]
> Cc1ccc(CNC(=O)CN2C(=O)C3(SCC(=O)N3c3ccc(F)cc3)c3ccccc32)cc1 (stereo not given)
    nt	-5.5%[46.1 µM]	-3.5%	nt	nt	10.9%	nt	-13.8%
> Nc1cc(=O)[nH]c(SCC(=O)c2ccc(F)cc2)n1
    -2.3%	nt	nt	5.3%	nt	nt	-2.1%	-13.4%
> CCCN(Cc1ccccc1)C(=S)Nc1ccc(OC(F)F)cc1
    ?	16.8%	-5.0%	4.2%	?	-13.8%	-3.4%	70.4%[activator]
> O=C(Nc1cc(C(=O)Nc2ccccc2C(=O)O)cc(C(=O)Nc2ccccc2C(=O)O)c1)c1ccccc1
    -0.3%	nt	nt	0.8%	nt	nt	-5.4%	-3.6%
> O=C(Nc1nc(=S)ss1)c1c(F)cccc1F
    -5.9%	22.7%	6.3%	-0.7%	13.1%	4.4%	40.4%	-23.1%
> CCOc1ccc(CC(=O)Nc2ccc(S(=O)(=O)N3CCCC3)cc2)cc1
    0.4%	6.7%	nt	-15.2%	?	nt	1.9%	-11.6%
> CCOC(=O)c1c(-c2ccc(C)cc2)csc1NC(=O)c1cc(-c2ccc(Cl)cc2)on1
    nt	-2.0%[46.1 µM]	-0.2%	nt	2.2%[46.1 µM]	-0.3%	nt	8.9%
> COC(=O)c1ccc(Oc2cc(C)nc(Cl)n2)cc1
    -0.7%	nt	nt	0.0%	nt	nt	19.9%	4.2%
> COCc1[nH]c(=S)c(C#N)cc1C(=O)OC
    -0.5%	9.6%	nt	7.4%	29.2%[46.1 µM]	nt	16.4%	-14.8%
> COc1ccc(-c2n[nH]c(=S)n2-c2ccc(C)cc2)cc1OC
    1.4%	5.1%[46.1 µM]	nt	-13.9%	-4.0%[46.1 µM]	nt	-6.2%	22.1%
> O=C(NNC(=S)Nc1ccc(Br)cc1)c1ccc(N2CCOCC2)c([N+](=O)[O-])c1
    1.3%	1.4%	-10.2%	12.1%	2.9%	?	10.7%	-8.7%
> CCCCn1c(=O)[nH]c(=O)c2c1ncn2Cc1ccco1
    8.0%	8.9%	-1.0%	-1.7%	-0.1%	2.8%	13.4%	-17.5%
> CCOc1ccc(S(=O)(=O)N2CCC(C(=O)NCc3cccnc3)CC2)cc1Cl
    1.1%	16.4%[46.1 µM]	nt	0.2%	-30.7%[46.1 µM]	nt	-17.4%	12.9%
> CCOC(=O)C(=O)c1cn(C2OCC(OC(C)=O)C(OC(C)=O)C2OC(C)=O)c2ccccc12 (stereo not given)
    13.9%	15.3%	-7.9%	0.8%	-15.6%	?	35.2%	-11.1%
> COCCNC(=O)CN1CCN(Cc2cccc(Cl)c2)C1=O
    -0.2%	nt	-1.9%	0.5%	nt	-9.1%	-6.8%	-19.9%
> COc1cccc(NC(C)=[N+](C)CCNS(=O)(=O)c2ccc(Cl)cc2)c1
    -3.4%	nt	nt	-2.7%	nt	nt	-12.3%	-2.0%
> C/C(=N\NC(=O)c1ccoc1C)c1ccc(Cl)s1
    2.9%	nt	nt	-22.6%	nt	nt	-10.6%	29.5%
